# Beta cell apopt = blocks beta cell apoptosis | INS-1E cytokine-induced death, ATP luminescence, 48 h; percent of positive-control rescue, neutral wells zero | protection from apoptosis, % (concentration not given with the values) | 0.8% of 300,000 active | AID 435005;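 active means all replicates at 75% or more, or half of them and the mean; inconclusive means half reach 75% but not the mean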;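 further: 0% = cytokine-treated negative control wells and 100% = positive control rescue; higher means more ATP so stronger rescue from cytokine killing; wells of about 40 µL received 100 nL stock; the first replicate is given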
# T cruzi repl = T. cruzi replication inhibition; T. cruzi beta-gal in NIH3T3, luminescence, 90 h; inhibition, % (no concentration beside the values); 1.4% of 300,000 active;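 active means mean inhibition across valid replicates above about 55%, limit read from the data; inconclusive means mean below that limit but half or more replicates reach it; inactive means mean below it, under half of replicates reach it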;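 further: signal also drops with host cell toxicity which is not excluded here; 0% = plate median of DMSO wells and 100% = zero luminescence signal; higher percent means less beta-gal luminescence so fewer parasites; stock transfer was 50 nL into about 50 µL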
# rRNA inh HTS = inhibitors of bacterial rRNA selective over humanized ribosomes; 1.6% of 350,000 active; GFP signal change (wild-type ribosome), % (test concentration not listed); E. coli WT GFP vs humanized-ribosome RFP mutants, fluorescence, 24 h; stronger effect = lower value; DMSO median 0, no signal -100;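 active means significant combined selectivity score with lowered wild-type GFP, culture density cut under 30%, mutant RFP and density less affected; inactive means any of these conditions unmet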; further: one replicate is shown; some compounds called inactive have numbers as strong as hits
# RanGTP-Impb inh = inhibitors of RanGTP-importin-beta interaction, primary screen, biochemical, FRET, CFP-Ran, YFP-importin-beta, homogeneous; cell-free CFP-Ran/YFP-importin-beta FRET ratio; inhibition, % (no concentration beside the values); 1.1% of 300,000 active; AID 2216;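 active means most replicates above 15%; inconclusive means exactly half above 15%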;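 further: 0% = DMSO wells and 100% = Ran loaded with GDP instead of GTP; wells of about 40 µL received 100 nL stock; the first replicate is given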
# A1 inh = inhibitors of the anti-apoptotic protein A1, read as caspase activation. caspase activation, % (concentration not given with the values). MEF A1-2A-BIM cells, Caspase-Glo 3/7 luminescence, 3 h; percent of clofoctol response, vehicle zero. 0.066% of 330,000 active;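 active means over half of replicate activation scores above 10%, or exactly half above 10 with the replicate mean above 10; inconclusive means replicate mean below 10 yet half the replicates above 10; inactive means over half of replicates below 10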;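 further: wells of about 30 µL received 50 nL stock; many hits fall short of the cut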
# MLL AF4-AF9 inh = inhibitors of human MLL-AF4/AF9 interaction; P42568; AlphaScreen, biotin-AF4 peptide binding to FLAG-AF9; inhibition, % at 10 µM; 0.47% of 350,000 active; AID 651704;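 active means every replicate reaching a set inhibition limit, whatever the replicate mean, cut at about 25% in these data; inconclusive means mean inhibition reaches that limit but some replicates miss it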;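 further: 0% = plate neutral control median and 100% = total signal loss; the record names both 10 and 1 µM as test concentration; the first replicate is given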
# Target sequence (P42568 whole entry, looked up): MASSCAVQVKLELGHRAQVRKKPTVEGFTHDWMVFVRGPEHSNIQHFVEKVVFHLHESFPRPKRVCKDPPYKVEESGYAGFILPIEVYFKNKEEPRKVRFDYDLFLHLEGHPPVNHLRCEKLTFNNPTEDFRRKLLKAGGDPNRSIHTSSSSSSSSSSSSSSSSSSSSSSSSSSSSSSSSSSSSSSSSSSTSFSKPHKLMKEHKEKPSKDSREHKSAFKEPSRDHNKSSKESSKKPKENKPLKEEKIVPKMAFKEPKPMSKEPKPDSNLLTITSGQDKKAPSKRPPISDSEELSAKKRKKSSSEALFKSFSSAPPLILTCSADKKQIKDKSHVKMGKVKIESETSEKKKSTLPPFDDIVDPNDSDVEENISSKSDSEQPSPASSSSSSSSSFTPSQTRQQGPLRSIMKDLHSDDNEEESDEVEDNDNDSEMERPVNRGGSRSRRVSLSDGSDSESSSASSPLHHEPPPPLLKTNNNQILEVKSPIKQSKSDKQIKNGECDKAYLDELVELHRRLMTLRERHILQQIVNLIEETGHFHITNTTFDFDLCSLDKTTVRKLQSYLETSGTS
# Calb FLC = C. albicans growth modulation with fluconazole; 0.57% of 300,000 active; growth inhibition, % (concentration not given with the values); C. albicans CaCi-2 (fluconazole-resistant clinical isolate) + fluconazole, Alamar Blue growth, 48 h; AID 1979;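 active means most replicates above 75%; inconclusive means exactly half above 75%; inactive means most below 75%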;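 further: all wells also contain fluconazole at 8 µg/ml as a sub-toxic cotreatment; 0% = median of DMSO wells and 100% = median of geldanamycin control wells; wells of about 8 µL received 7.5 nL stock; the first replicate is given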
# Vif A3G = HIV-1 Vif–A3G interaction blockers – biochemical, TR-FRET, GST-Vif 1-94, biotin-A3G peptide, dose response retest, primary screen (AID 1117319). TR-FRET GST-Vif / biotin-A3G peptide binding; higher % means a stronger effect; test concentration not given here; strong numbers were not always called active. one-dose inhibition, %; IC50 in µM for titrated hits. 0.57% of 260,000 active;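 active means above the screen mean plus three standard deviations and confirmed in dose response; inconclusive means results disagree or hit not tested in dose response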;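 further: Vif residues 1-94 fused to GST binding biotinylated APOBEC3G peptide 110-148; 0% = full assay without inhibitor and 100% = GST in place of GST-Vif; retest series ran down from 100 µM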
# rRNA inh HTS OD600 = also measured in rRNA inh HTS; calls as there; OD600 change, %; measured here: OD600 growth;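 optical density of the mix in the first replicate; 0 = DMSO median and -100 = no signal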
# rRNA inh HTS RFP = second read-out of rRNA inh HTS, no call of its own (marks repeat the call); RFP signal change, %; measured here: RFP humanized mutant strains;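 first replicate; 0 = DMSO median and -100 = no signal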
# Starred values were filed as active, the others as inactive; ? = inconclusive; / = not tested or not shown; & = joins results of further samples. An excerpt, so the mix of outcomes need not match the whole.
SMILES,Beta cell apopt,T cruzi repl,rRNA inh HTS,rRNA inh HTS OD600,rRNA inh HTS RFP,RanGTP-Impb inh,A1 inh,MLL AF4-AF9 inh,Calb FLC,Vif A3G
COc1ccc(C(=O)Cc2cc3ccccc3oc2=O)cc1,3,-1,7,6,-2.1,-0.5,-0.9,0.0,-1,-12%
O=C(CCCOc1ccccc1)Nc1ccncc1,-6,6,/,/,/,4.6,1.4,/,-6,-1%
C/C(=N\Nc1nc(C)cc(-c2ccccc2)n1)c1ccc(O)cc1,83*,-3,-1,1,-2.2,-4.9,-0.7,6.4,-2,3%
O=C(NCCc1ccncc1)C(F)(F)F,-5,7,/,/,/,-1.6,0.3,/,-3,18%
CC[n+]1c(C)n(C)c2cc(S(=O)(=O)N(C)C)ccc21,0,2,17,13,4.2,0.4,0.5,-15,-3,/
N/C(=N\OC(=O)CSc1ccccc1)c1ccc([N+](=O)[O-])cc1,-6,7,5,6,0.3,-0.6,-1.0,-4.2,?,?
O=C(CCS(=O)(=O)c1cccc2nonc12)N1CCN(c2ccc(F)cc2)CC1,5,-5,/,/,/,-5.1,-0.4,/,-8,1%
C(=N\N1CCN(c2ccccn2)CC1)/c1ccco1,-7,-1,11,6,-0.7,2.4,0.7,0.6,0,5%
Cc1cc(C)nc(N/N=C/c2ccco2)n1,-2,-20,/,/,/,3.5,-0.8,/,-4,7%
CN1C(=O)C(O)(CC(=O)/C=C\c2ccc3c(c2)OCO3)c2ccccc21 (stereo not given),-4,-24,2,-4,1.4,/,-0.4,-0.5,-22,-1%
COc1ccc(NC(=O)Nc2cccc3c2O[C@H](CN(C)S(=O)(=O)c2ccccc2)[C@@H](C)CN([C@H](C)CO)C3=O)cc1,2,/,-3&4,-10&4,0.4&-9.8,/,-0.8,-0.6,/,/
Cc1ccc(N(CC(=O)NCc2ccncc2)S(C)(=O)=O)cc1,0,-15,/,/,/,6.9,-2.0,/,5,3%
CC(=O)Nc1ccc(NC(=O)C(C)OC(=O)c2ccc3[nH]c(C)c(C)c3c2)cc1 (stereo not given),5,1,-13,-16,-0.2,-3.1,0.6,1.3,9,0%
O=C(CCCOc1ccccc1)Nc1nnc(C2CCCO2)s1 (stereo not given),-4,-13,/,/,/,-1.8,-0.1,/,-2,1%
COc1ccc(-c2cc(C)no2)cc1S(=O)(=O)NCCCN1CCN(c2ccccc2)CC1,6,-1,-4,-7,6.4,4.8,0.0,8.5,9,/
O=C(NC1CCN(Cc2ccccc2)CC1)c1ccccc1Cl,-2,11,8,6,-3.1,0.8,0.2,-1.0,-5,-1%
Cc1cc(C)nc(NS(=O)(=O)c2ccc(N=Cc3c(C)[nH]n(-c4ccccc4)c3=O)cc2)n1,-2,-7,-1,9,0.0,1.1,0.1,-1.5,-5,-5%
CN(Cc1ccccc1)C(=O)c1cc(-c2ccc(Br)cc2)on1,/,0,-5,4,0.1,-3.0,-0.3,1.0,-12,16%
Cc1ccccc1Nc1c(-c2ccc(N3CCOCC3)cc2)nc2ncccn12,-6,14,-7,-6,-6.9,-9.1,0.7,-9.0,0,5%
c1ccc(Cn2nnc3c(N4CCN(Cc5ccc6c(c5)OCO6)CC4)ncnc32)cc1,4,44,/,/,/,-3.9,0.6,/,-23,-3%
Cc1ccc(NC(NC(=O)OCCn2c([N+](=O)[O-])cnc2C)C(Cl)(Cl)Cl)cc1 (stereo not given),-2,-5,/,/,/,18*,1.2,/,3,/
Cc1ccc(NC(=O)CCn2cc(C(F)(F)F)ccc2=O)cc1,/,16,20,20,4.7,-2.5,-0.4,-1.2,3,/
Cc1ccc(NS(=O)(=O)c2cccc(C(=O)N3CCOCC3)c2)cc1,6,-3,/,/,/,-2.2,0.0,/,2,-7%
CCOC(=O)/C=C1\SCC(=O)N1CC(=O)NCc1cccc(Cl)c1,-6,5,1,3,0.4,-3.3,0.0,1.1,-5,19%
O=C(Oc1ccccc1N1CCOCC1)c1ccccc1,/,2,-2,3,-2.4,2.2,-0.3,-1.5,2,2%
CC(=O)Nc1ccc(C(=O)NC2CCSc3ccccc32)cc1 (stereo not given),-1,-7,3,9,-1.6,-0.4,0.5,0.0,2,-1%
COc1ccccc1N/C(N)=N/c1nc(C(F)(F)F)cc(=O)[nH]1,/,-4,18,17,5.8,-0.2,0.4,7.5,21,2%
Cc1cc(-n2c(C)cc(C(=O)CSc3nncn3C)c2C)no1,-10,/,11,2,-0.3,/,-0.7,0.4,/,-1%
CCO[C@@H]1OC(C(=O)Nc2ccccc2)=C[C@H](c2ccccc2)[C@H]1CCCO,-1,-6,-22,-35,-29,1.9,-0.1,-16&1.5,24,3%
Cn1c(=O)c2ncn(CC(=O)NCCOCc3ccccc3Cl)c2n(C)c1=O,-5,-21,/,/,/,-1.1,0.5,/,1,-2%
CCOC(=O)c1c(C)[nH]c(C)c1S(=O)(=O)N(C)CC(=O)Nc1cccc(F)c1,0,-5,-9,0,4.3,1.7,0.4,-1.0,12,/
CC(=O)Nc1nnc(SCC(=O)N2CCCc3ccccc32)s1,-1,-5,-3,7,-2.5,7.6,-0.9,-3.6,-10,85%
C/C(CC(=O)NCc1ccc(Cl)cc1)=N\NC(=O)c1ccccc1F,-2,5,-4,4,-0.4,-0.8,-0.7,-3.3,-14,?
NC(=O)CCN1CCN(Cc2cn[nH]c2-c2cccc3ccccc23)CC1,-3,-8,16,15,1.4,-2.0,2.9,2.1,-7,5%
CN(C(=O)CSc1nnc(-c2ccccc2F)n1N)C1CCCCC1,-1,/,2,11,-1.1,/,0.3,-2.6,/,11%
CC1CC(=O)Nc2ccccc2N1S(=O)(=O)c1cccs1 (stereo not given),-2,-7,13,-2,2.3,-3.8,0.0,0.1,3,2%
O=C(Nc1ccccc1F)c1cnccn1,-6,-12,/,/,/,/,0.1,-1.8,-1,12%
O=C(c1ccc(Cl)s1)N(Cc1nnc(-c2ccccc2Cl)o1)C1CC1,-1,-1,-26,-48,0.2,-3.0,2.7,-16,-13,5%
Cc1c(C(=O)OCC(=O)N2CCCCC2C)oc2ccccc12 (stereo not given),2,/,/,/,/,/,-0.7,0.3,/,-4%
Cc1cc(C)cc(NC(=S)NCCc2c[nH]c3ccccc23)c1,1,1,/,/,/,?,-1.6,/,8,-7%
CC(C)(C)C1C/C(=C/c2ccccn2)C(=O)/C(=C/c2ccccn2)C1 (stereo not given),109*,40,/,/,/,1.6,?,/,1,3%
COCCN(C(=O)c1cccc(-n2cnnn2)c1)c1c(N)n(CC(C)C)c(=O)[nH]c1=O,-13,-11,8,1,-3.9,/,-0.1,-1.7,-3,-3%
Cc1ccc(S(=O)(=O)NCC(=O)NCC(=O)N(C)Cc2ccc3ccccc3c2)cc1C,3,3,-12,-20,9.4,2.0,1.2,1.2,-8,-3%
O=C(NCC1COc2ccccc2O1)C1(c2ccccc2)CCCC1 (stereo not given),5,-8,/,/,/,0.0,-1.1,-3.9,13,6%
NCc1ccc(S(N)(=O)=O)cc1,7,6,15,14,1.1,-0.8,1.4,-0.2&-4.9,/,-6%
Cc1nc2ccccc2c(=O)n1NC(=O)c1cccc([N+](=O)[O-])c1,-1,9,14,5,-2.9,1.5,-0.2,-1.5,9,-1%
CN(C)c1ccc(C2N(C)C(=O)c3ccccc3N2C)cc1 (stereo not given),-6,11,-7,-14,-1.2,1.2,-0.3,2.2,-6,/
O=C(NCc1ccc(F)cc1)C(c1ccccc1)N(C(=O)c1csnn1)C1CC1 (stereo not given),-2,7,7,4,0.3,1.4,0.2,-6.6,37,-1%
c1ccc(C2CCC(N3CCC(N4CCCCC4)CC3)CC2)cc1 (stereo not given),1,33,/,/,/,1.7,1.1,/,0,8%
CCCCn1nc2cc(C(=O)NC3CCCc4ccccc43)ccc2c1OCC (stereo not given),-7,7,-25,-23,-5.8,-0.2,0.0,13,-1,2%
Cc1nn(-c2ccc(N3CCCCC3)nn2)c(C)c1CCC(=O)Nc1cc(F)ccc1F,3,-1,-14,-16,-1.2,?,-2.4,2.3,4,/
CCc1cc2c(=O)c(-c3nc4ccccc4n3C)c(C)oc2c(CN2CCN(CCO)CC2)c1O,-3,-14,9,-4,0.7,-2.1,-0.7,-0.4,0,1%
NC(=O)c1cc([N+](=O)[O-])ccc1NCCN1C(=O)c2ccccc2C1=O,-4,5,/,/,/,0.2,-1.0,/,-1,-4%
CCOC(=O)C1(Cc2cccc(OC)c2)CCCN(Cc2cc(C(C)C)n[nH]2)C1 (stereo not given),-3,-5,-9,-5,-2.7,?,0.2,2.0,23,?
COc1cc(/C(C)=N/NC(=O)c2nnn(-c3nonc3N)c2-c2cccs2)ccc1O,3,-11,-2,0,-2.8,-0.1,-0.4,1.2,3,/
CCCn1c(N)c(N(CCOC)C(=O)c2ccc(-c3ccc(Cl)cc3)o2)c(=O)[nH]c1=O,0,-3,7,11,1.0,2.4,-0.7,-5.0,3,6%
CCCCOc1c(Cl)cc(CNC(C)(C)CO)cc1OCC,2,42,-12,-3,-1.3,-4.2,2.8,4.1,-11,?
N#Cc1cnn(-c2cccc(Cl)c2)c1N,-3,21,13,6,-5.1,0.6,-1.0,0.9,-1,-2%
c1ccc2oc(C3=NNC(=NC4CC4)SC3)cc2c1,-10,13,2,-4,-1.6,11,0.5,-2.9,-24,/
Cc1ccc(OCc2cc(C(=O)N3CCCC(O)C3)no2)cn1 (stereo not given),-3,-22,22,11,2.0,6.2,1.7,0.4,2,/

# Some entries already given, limited to T cruzi repl and RanGTP-Impb inh.
smiles	T cruzi repl	RanGTP-Impb inh
CCOC(=O)c1c(C)[nH]c(C)c1S(=O)(=O)N(C)CC(=O)Nc1cccc(F)c1	-5	1.7
CC(=O)Nc1nnc(SCC(=O)N2CCCc3ccccc32)s1	-5	7.6

# The list continues.
SMILES,Beta cell apopt,T cruzi repl,rRNA inh HTS,rRNA inh HTS OD600,rRNA inh HTS RFP,RanGTP-Impb inh,A1 inh,MLL AF4-AF9 inh,Calb FLC,Vif A3G
O=C1CC(/C=C/c2ccccc2)=Nc2ccccc2N1,1,-5,1,-1,3.8,5.7,-4.7,0.5,-2,4%
O=C(/C=C/c1cccs1)N1CCN(c2ccc(F)cc2)CC1,/,-4,/,/,/,-3.2,-0.7,-0.9,-3,4%
O=C(COc1ccccc1-c1ccccc1)N/N=C/c1ccncc1,-5,12,-23,-31,-0.1,5.2,1.1,-0.2,14,-8%
Cn1cccc1CNCc1ccc(F)cc1,0,15,2,11,1.7,-3.0,-0.1,-0.4,-2,14%
O=C(O)c1nccnc1C(=O)NCc1csc2ccc(Cl)cc12,-4,-16,14,14,-0.7,6.8,1.3,-2.2,-7,-3%
CC(=O)c1ccc(NC(=O)N[C@@H](CC(C)C)C(=O)O)cc1,4,-9,/,/,/,-1.0,-0.2,/,-3,23%

# Screening data: PubChem BioAssay, several laboratories
